Ecoli growth = blocks Escherichia coli growth | OD600, 23 h; active compounds read low | OD600 absorbance (test concentration not listed) | 0.21% of 330,000 active;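 active = OD600 absorbance below the run mean of sample wells minus 3.6 SD, in any replicate, cut at about 0.56 in these data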;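 also: stock transfer was 300 nL into about 60 µL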
Vif A3G = HIV-1 Vif–A3G interaction blockers – biochemical, TR-FRET, GST-Vif 1-94, biotin-A3G peptide, dose response retest, primary screen (AID 1117319) | TR-FRET GST-Vif / biotin-A3G peptide binding; higher % means a stronger effect; test concentration not given here; strong numbers were not always called active | inhibition, %, or IC50 in µM where a hit was titrated | 0.57% of 260,000 active;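 active = above the screen mean plus three standard deviations and confirmed in dose response; inconclusive = results disagree or hit not tested in dose response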;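 also: Vif residues 1-94 fused to GST binding biotinylated APOBEC3G peptide 110-148; 0% = full assay without inhibitor and 100% = GST in place of GST-Vif; retest series ran down from 100 µM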
B2AR ag = agonists of human beta-2 adrenergic receptor inducing internalization; response, % (test concentration not listed); Am2.2-beta2AR cells, FAP receptor internalization, flow cytometry; reference of the scale not given here; P07550; 0.43% of 340,000 active; AID 504454;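 active = response above a set limit, near 3 SD of response in nonfluorescent compounds, cut at about 42% in these data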;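 also: stock transfer was 100 nL into about 11 µL; a reference agonist was the positive control; negative values mostly stem from fluorescent compounds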
Target sequence (P07550 whole entry, looked up): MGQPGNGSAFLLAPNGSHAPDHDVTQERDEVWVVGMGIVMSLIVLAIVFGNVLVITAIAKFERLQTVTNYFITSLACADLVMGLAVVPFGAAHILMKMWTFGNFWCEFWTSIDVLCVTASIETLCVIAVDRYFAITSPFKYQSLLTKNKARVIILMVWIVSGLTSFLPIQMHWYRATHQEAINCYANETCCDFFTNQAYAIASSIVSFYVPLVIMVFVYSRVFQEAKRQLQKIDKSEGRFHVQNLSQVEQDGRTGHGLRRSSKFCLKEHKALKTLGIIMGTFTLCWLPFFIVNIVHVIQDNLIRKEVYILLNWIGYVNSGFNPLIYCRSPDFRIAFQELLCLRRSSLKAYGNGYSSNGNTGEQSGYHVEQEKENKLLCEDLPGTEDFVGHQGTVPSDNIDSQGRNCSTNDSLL
UCH37 DUB inh = inhibitors of human deubiquitinating enzyme UCH37 | Q9Y5K5 | purified proteasome/UCH37, Ub-AMC cleavage fluorescence | inhibition, % (test concentration not listed) | 0.33% of 330,000 active | AID 588478;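 active = mean of two replicates above 20%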;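 also: 0% = compound-free wells with enzyme and 100% = wells lacking proteasome; stock transfer was 100 nL into about 20 µL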
Target sequence (Q9Y5K5 whole entry, looked up): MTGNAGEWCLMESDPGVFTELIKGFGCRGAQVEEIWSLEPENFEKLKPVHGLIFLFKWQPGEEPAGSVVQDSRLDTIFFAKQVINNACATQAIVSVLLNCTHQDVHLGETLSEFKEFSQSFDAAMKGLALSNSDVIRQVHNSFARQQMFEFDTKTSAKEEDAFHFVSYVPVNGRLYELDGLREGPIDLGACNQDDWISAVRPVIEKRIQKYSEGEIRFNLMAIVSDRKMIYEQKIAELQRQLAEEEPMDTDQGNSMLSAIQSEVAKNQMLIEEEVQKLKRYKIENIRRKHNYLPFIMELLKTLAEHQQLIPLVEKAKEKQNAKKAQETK
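Material: human UCH37 enzyme supplied as purified proteasome complex / Amount: 0.15 nM proteasome as dispensed / Buffer or medium: pH 7.4 Tris-HCl (50 mM) with ovalbumin, ATP-MgCl2, DTT / Times: preincubation 30 min, reaction 25 min, room temperature / Technique: AMC fluorescence from Ub-AMC cleavage, excitation 355 nm, emission 460 nm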
A1 inh = inhibitors of the anti-apoptotic protein A1, read as caspase activation; MEF A1-2A-BIM cells, Caspase-Glo 3/7 luminescence, 3 h; percent of clofoctol response, vehicle zero; caspase activation, % (test concentration not listed); 0.066% of 330,000 active; AID 2462;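 active = over half of replicate activation scores above 10%, or exactly half above 10 with the replicate mean above 10; inconclusive = replicate mean below 10 yet half the replicates above 10; inactive = over half of replicates below 10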;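 also: wells of about 30 µL received 50 nL stock; many hits fall short of the cut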
LANA-H2B inh = blocks KSHV LANA binding to histone H2A/H2B | Q9QR71 | 0.6% of 320,000 active | AID 2629 | cell-free LANA-H2A/H2B peptide, fluorescence polarization | inhibition, % (test concentration not listed); in the data active = inhibition mostly above about 10%, no sharp cut-off; inactive = mostly below about 6.7%;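 also: stock transfer was 7.5 nL into about 10 µL; 0% = median of vehicle wells and 100% = median of positive control wells; one replicate is shown; the record names a cut of 25% in any replicate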
HNF4A DNA FP = change in binding of human HNF4 alpha to DNA. HNF4a-FITC DNA binding, fluorescence polarization, 1 h. 0.3% of 360,000 active. activity change, % at 10 µM. P41235; in the data active = activity change above about 30%, passing the limit was not always enough;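 also: controls were the assay level and a saturating level of protein; the project sought stronger binding though the title names inhibitors; some compounds called inactive have numbers as strong as hits; positive values seem to mean higher polarization but the record does not say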
Numbers without * were called inactive; ? = inconclusive; nt = no result given; & = joins results of further samples.

SMILES	Ecoli growth	Vif A3G	B2AR ag	UCH37 DUB inh	A1 inh	LANA-H2B inh	HNF4A DNA FP
Cc1c(C)n2c(SCC(=O)Nc3cccc4ccccc34)nnc2[nH]c1=O	0.71	-14%	-3	0.8	1.1	nt	3.1
O=C(Nc1nc(-c2ccccc2)cs1)c1cccs1	0.66	1%	1	-3.9	0.2	0.9	2.0
CC(C)c1cc(N2CCOCC2)n2ncc(-c3ccccc3)c2n1	0.67	-4%	-19	-41	-0.1	-0.6	2.4
COc1ccc(-c2ccc(=O)n(Cc3cccc(Cl)c3)n2)cc1	0.66	-2%	9	-20	0.7	1.3	4.2
O=C(Oc1ccc(C(=S)N2CCOCC2)cc1Br)c1ccccc1F	0.65	32%	8	4.1	0.4	1.0	-0.1
O=S(=O)(Cc1ccc(Cl)cc1)C1CCCCC1O (stereo not drawn)	0.64	nt	0	1.5	-0.1	3.7	-4.0
CCCOC(=O)c1c(-c2ccc(C)cc2C)csc1NC(=O)C1C2CCC(O2)C1C(=O)O (stereo not drawn)	0.64	nt	5	4.7	3.0	3.5	3.6
CC(C)(Oc1ccc(Cl)cc1)C(=O)Nc1ccncc1	0.61	-5%	10	1.1	1.2	0.5	1.6
CC(=O)Nc1ccc(S(=O)(=O)Nc2ccc(N3CCOCC3)c(F)c2)cc1	0.72	?	-4	0.9	0.1	2.1	0.1
Cc1ccc(NC(=O)CSc2ccc(-c3ccc4c(c3)OCO4)nn2)cc1F	0.69	nt	4	2.9	-2.6	-5.0	-0.3
CCCCNC(=O)C1CCN(S(=O)(=O)N2CCOCC2)CC1	0.66	nt	2	0.5	1.1	4.3	-0.4
COc1ccccc1N(CCC#N)C(=O)CSc1nnc2ccccn12	0.68	-2%	3	1.4	0.9	3.3	-1.9
COCCN(C(C)=O)c1nnc(-c2ccccn2)s1	0.66	16%	-21	-0.8	0.2	-0.5	-0.3
O=C1CCC(C(=O)OCC(=O)N2N=C3/C(=C\c4ccccc4)CCCC3C2c2ccccc2)N1 (stereo not drawn)	0.69	-1%	10	3.6	nt	nt	2.0
O=C(O)c1c(-c2ccccc2)c2oc3ccccc3c2[nH]c1=O	0.73	-4%	-3	-130	1.0	5.2	2.3
C[C@H](CO)N1C[C@H](C)[C@@H](CN(C)CC2CCCCC2)Oc2ccc(NS(C)(=O)=O)cc2C1=O	nt	nt	0	1.5	-0.1	3.9	-2.3
CCCC(c1nnnn1Cc1ccc(F)cc1)N1CCN(CC)CC1 (stereo not drawn)	0.69	3%	-2	0.1	0.2	-33	0.7
CCOC(=O)N1CCc2c(sc3c2c(=O)n(Cc2ccccc2)c(=O)n3Cc2ccc(C)cc2)C1	0.74	8%	6	5.7	0.5	-1.4	0.0
CCOc1ccc(NC(=O)c2ccccc2OC)cc1	0.68	-1%	11	1.5	-2.1	-2.9	-0.7
CCCOC(=O)c1ccc(NC(=O)c2cc(=O)[nH]c3ccccc23)cc1	0.73	nt	-5	-0.3	0.1	-4.2	1.0
Cc1ccc(OCCNC(=O)CNC(=O)c2ccc(Cl)c([N+](=O)[O-])c2)cc1	nt	nt	-2	nt	1.8	-0.4	1.1
C=CCN1C(=O)c2ccc(C(=O)N(C)CC(=O)Nc3ccccc3C(F)(F)F)cc2C1=O	0.69	nt	-4	1.6	0.0	-4.9	3.0
COc1ccc(C(=O)O)cc1S(=O)(=O)NC1CCN(Cc2ccccc2)CC1	0.64	3%	-5	-0.2	0.6	-0.7	0.5
CCn1cc(C(=O)NCC2CCCO2)c(=O)c2cc(S(=O)(=O)N(C)C)ccc21 (stereo not drawn)	0.76	3%	-5	4.7	-0.5	2.5	3.6
COc1cccc(N2CCN(CC(=O)Nc3nc4c(s3)CC(C)CC4)CC2)c1 (stereo not drawn)	0.72	28%	6	4.3	-0.1	-0.3	8.7
O=C(N/N=C/c1cccc(O)c1)c1ccc2c(c1)OCCO2	nt	1%	6	nt	-12	0.0	1.5
O=c1ccc2ccc(OCCOc3cccc(Cl)c3)cc2o1	0.69	nt	-5	-98	-0.1	-2.6	0.0
COc1cc(NC(=O)C2CCCN(S(=O)(=O)c3ccc4c(c3)CCCN4C(C)=O)C2)cc(OC)c1 (stereo not drawn)	0.66	nt	5	1.4	0.3	-2.0	3.3
Cc1nc(CNS(=O)(=O)c2ccc3ccccc3c2)cs1	0.67	-1%	-2	3.6	0.4	-2.0	3.7
O=C(Cc1cccs1)N1CCCC(c2nc3c(nnn3Cc3ccccc3Cl)c(=O)[nH]2)C1 (stereo not drawn)	0.71	-4%&1%	-14	4.4	?	0.6	0.5
Cn1c(C(=O)N2CCCC(C(=O)c3ccc(C(F)(F)F)cc3)C2)cc(=O)n(C)c1=O (stereo not drawn)	0.67	-4%	-2	3.0	-0.1	-0.4	-2.1
C=CC[C@@H](CC(=O)NCCO)C(=O)N[C@H](COC(=O)[C@H](CC=C)CC(=O)OC(C)(C)C)Cc1c[nH]c2ccccc12	0.73	0%	-2	2.6	-0.7	nt	-2.8
O=C(N/N=C/c1ccccc1O)C1(O)c2ccccc2-c2ccccc21	nt	-7%	1	nt	0.5	4.5	2.1
Cc1ccccc1Oc1ccc(Oc2ccccc2C)nn1	0.73	1%	-3	1.5	-1.9	-1.6	-2.4
Cc1c(Cl)cccc1NC(=O)CCC(=O)NNC(=O)c1ccco1	0.66	2%	9	2.9	0.0	-0.4	-0.4
O=C(Nc1ccc(Cl)c(Cl)c1)Nc1nnc(CC2=CCCCC2)s1	0.69	14%	2	2.9	0.4	0.6	3.3
N/C(Cc1ccc([N+](=O)[O-])cc1)=N\OC(=O)CC1CCCCC1	nt	33%	3	nt	0.1	0.7	0.8
CCOc1ccc(C(=O)N2CCCC(c3nc(-c4cccs4)no3)C2)cc1 (stereo not drawn)	0.68	-2%	-9	0.6	-0.1	5.3	-0.1
CN(C)S(=O)(=O)N1CCC(CCCC2CCN(S(=O)(=O)N(C)C)CC2)CC1	0.72	64%	2	2.6	0.5	-3.6	1.9
CCn1c(SCC(=O)NCC2CCCO2)nc2ccccc21 (stereo not drawn)	0.68	-5%	0	2.4	-0.6	5.0	2.0
COc1ccccc1/C=C1\SC(=O)N(CC(=O)N(C)C2CCS(=O)(=O)C2)C1=O (stereo not drawn)	0.68	3%	5	2.7	0.1	12	12
CC(=O)Nc1ccc(OCC(O)Cn2nc(C)c(Br)c2C)cc1 (stereo not drawn)	0.76	31%	1	3.2	0.2	-11	-0.2
Cn1c(=O)n(C)c2cc(NS(=O)(=O)c3ccc(Br)s3)ccc21	0.66	9%	-1	4.1	0.1	-2.5	-0.3
CC(C)c1ccc(NC(=S)NCc2ccc3c(c2)OCO3)cc1	0.65	3%	12	0.6	0.8	0.4	-1.5
O=C(O)CCC(=O)Nc1ccc(Cc2ccc(NC(=O)CCC(=O)O)c(O)c2)cc1O	0.74	11%	-19	4.4	0.8	-2.4	1.8
CCOC(=O)c1c(N2C(=O)Nc3ccccc3N2O)n[nH]c1-c1cccc(Cl)c1	0.7	-13%	-1	2.5	-0.5	0.3	0.1
NC(=O)c1cccnc1Sc1ccc(Cl)cc1	0.7	nt	-2	-1.1	-0.1	-5.9	-1.0
Cc1ccc(-n2nc3c(c2NC(=O)C2CC2)CS(=O)(=O)C3)cc1C	0.72	nt	5	-2.6	-1.7	-2.2	1.5
N#C/C(=C\c1ccccc1)C(=O)N1CCN(c2ccccc2F)CC1	nt	nt	1	nt	0.5	-2.1	-0.6
CCc1ccc(NC(=O)COC(=O)Cn2cnc3ccccc32)cc1	0.63	-2%	0	3.8	nt	nt	-3.9
COc1ccc(C(=O)c2ccccc2O)c(O)c1	0.66	nt	1	0.8	-0.7	2.3	2.5
Cc1nc2ccc(NC(=O)NCc3ccco3)cc2s1	0.64	4%	5	1.1	-1.2	-1.8	-5.1
C=CCSc1nnc(NC(=O)C23CC4CC(CC(NC(C)=O)(C4)C2)C3)s1	0.72	-2%	2	-2.3	0.6	-15	-4.1
CCOC(=O)c1cc(CC)sc1/N=C/C1=C(O)CC(C)(C)CC1=O	nt	-4%	-1	nt	0.0	0.9	-0.6
Cc1ccc(S(=O)(=O)NCC(=O)OCC(=O)NCc2cccs2)cc1	0.65	-3%	6	6.2	0.4	2.9	2.7
COc1ccc2[nH]c3c(c2c1)CCN1C(=O)C(CC(=O)NCCN2CCOCC2)C[C@H](C(=O)N2CCOCC2)[C@@]31CCC1CCCC1 (stereo partly drawn)	0.69	-2%	-3	-2.0	nt	nt	1.6
CC1([N+](=O)[O-])COC2(CCCCC2)OC1	0.67	-1%	6	1.4	nt	nt	-1.5
CCn1c(SCC(=O)N/N=C/c2ccc(C)o2)nnc1-c1ccc(C)cc1	nt	nt	0	nt	-0.6	-1.2	2.8
COc1ccc(S(=O)(=O)N2CCCC2C(=O)NCc2ccccc2Cl)cc1 (stereo not drawn)	0.65	-2%	0	0.6	0.7	2.5	-6.6
COc1ccccc1/C=C/C=N/NC(=O)c1cc(-c2ccco2)[nH]n1	nt	?	1	nt	0.2	-2.0	-18
(next part)
SMILES	Ecoli growth	Vif A3G	B2AR ag	UCH37 DUB inh	A1 inh	LANA-H2B inh	HNF4A DNA FP
O=C(/C=C/c1cccc(C(F)(F)F)c1)Nc1cccc(C(F)(F)F)c1	0.63	-1%	34	0.3	-0.2	-4.0	4.2
O=C(COC(=O)c1c(F)cccc1F)Nc1ccc2[nH]c(=O)[nH]c2c1	0.69	32%	0	1.4	-0.3	-4.0	-4.4
CC(C)NC(=O)NC(=O)CSc1ccc(S(=O)(=O)N2CCOCC2)cn1	0.59	4%	-11	0.6	nt	nt	-0.6
O=C(c1ccc(=O)oc1)N1CCOCC1	0.75	?	2	-9.9	0.0	-3.2	-8.5
COc1ccc(C(=O)NC2CCCc3ccccc32)cc1 (stereo not drawn)	0.66	nt	5	0.5	-0.2	-10	1.1
Cc1ccc(C(=O)Cn2nnc3ccccc32)cc1C	0.58	-3%	-4	2.4	-1.0	11	-1.9
O=C(CN1c2cccc3cccc(c23)S1(=O)=O)NCc1ccc2c(c1)OCO2	0.71	6%	-1	-22	-0.1	7.1	-2.1
CCC(C(=O)OCc1csc(CC(=O)Nc2ccccc2C)n1)c1ccccc1 (stereo not drawn)	0.67	0%	3	2.3	0.7	-5.2	4.0
CCOC(=O)CC(NC(=O)c1cccc2c1C(=O)N(Cc1cccnc1)C2)c1ccc(OC(C)C)cc1 (stereo not drawn)	0.68	12%	-6	2.0	1.2	-0.6	3.0
c1coc(-c2ccnc(-n3cccc3)n2)c1	0.72	nt	2	-1.2	-1.3	nt	-0.6
CCN(CC)c1ccc(/C=N/NC(=O)c2c[nH]c3ccccc23)cc1	nt	6%	27	nt	0.2	0.9	6.5
O=C(Cn1ccc(C(F)(F)F)n1)Nc1ccc(S(=O)(=O)NCc2ccco2)cc1	0.71	-2%	-1	-0.4	-0.1	0.6	-0.2
CCCc1nc2ccccc2n1CC(O)COc1ccc(NC(C)=O)cc1 (stereo not drawn)	0.68	0%	-4	1.3	1.1	1.7	-7.5
CCSCCOC(=O)C1=C(C)NC(=O)NC1c1cc(OC)ccc1OC (stereo not drawn)	0.75	-2%	1	-5.1	-0.9	-2.4	2.1

Shown bar-delimited: 3 of the compounds above
mol | Ecoli growth | Vif A3G | B2AR ag | UCH37 DUB inh | A1 inh | LANA-H2B inh | HNF4A DNA FP
COc1ccccc1N(CCC#N)C(=O)CSc1nnc2ccccn12 | 0.68 | -2% | 3 | 1.4 | 0.9 | 3.3 | -1.9
COCCN(C(C)=O)c1nnc(-c2ccccn2)s1 | 0.66 | 16% | -21 | -0.8 | 0.2 | -0.5 | -0.3
O=C1CCC(C(=O)OCC(=O)N2N=C3/C(=C\c4ccccc4)CCCC3C2c2ccccc2)N1 (stereo not drawn) | 0.69 | -1% | 10 | 3.6 | nt | nt | 2.0
